Assay outcomes (PubChem BioAssay)
VDR inh: blocks the human vitamin D receptor; Potency, µM, for inactives: max response, negative = inhibition, hits mostly inhibitors; P11473; AID 504847; VDR-SRC2-3 peptide fluorescence polarization, 2 h; 0.93% of 400,000 active; active = well fitted inhibition curve with a large enough effect; inconclusive = small, poorly fitted or top-dose-only effect, or another doubt; inactive = no such curve, though single readings can be large or run the other way; also: series mostly up to about 120 µM
Target sequence (P11473 whole entry, looked up): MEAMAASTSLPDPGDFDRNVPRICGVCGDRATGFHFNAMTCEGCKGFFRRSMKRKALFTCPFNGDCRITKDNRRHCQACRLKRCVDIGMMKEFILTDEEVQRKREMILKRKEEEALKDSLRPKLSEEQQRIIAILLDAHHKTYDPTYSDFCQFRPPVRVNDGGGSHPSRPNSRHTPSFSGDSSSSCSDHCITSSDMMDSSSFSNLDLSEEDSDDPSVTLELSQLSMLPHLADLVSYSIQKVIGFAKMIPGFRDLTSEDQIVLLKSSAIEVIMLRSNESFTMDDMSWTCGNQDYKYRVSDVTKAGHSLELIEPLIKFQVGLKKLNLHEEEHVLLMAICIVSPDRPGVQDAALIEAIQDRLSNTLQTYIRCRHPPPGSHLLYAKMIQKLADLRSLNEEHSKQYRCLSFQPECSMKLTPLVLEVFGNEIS
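The screen uses fluorescence polarization to detect compounds that interfere with recruitment of the SRC2-3 coactivator peptide to VDR; plates are read after 2 h at room temperature.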
Active calls of the source: *; ? = inconclusive; & = joins results of further samples. % is scaled to controls: 0 for no effect and ±100 for the full control effect; potency is read from the fitted curve at half-maximal effect. Some of the compounds tested, so the mix of outcomes need not match the whole.

compound,VDR inh
NC(=S)NNc1ccnc2cc(Cl)ccc12,-15%
Cc1cccc(N2CCN(Cc3ccc(Br)o3)CC2)c1C,5%
Clc1ccccc1OCc1nc(-c2ccncc2)no1,-6%
CCOc1ccc(-c2cc(C(=O)N3CCN(c4cccc(C(F)(F)F)c4)CC3)c3ccccc3n2)cc1,3%
COc1cccc(NC(=O)Cc2c(O)c3ccccc3[nH]c2=O)c1,-2%
CC(=O)CSc1nnc(-c2ccc(S(=O)(=O)N3CCCC3)cc2)n1C,17%
Cc1ccc(C)c(Cn2c(O)c(N=NC(=S)Nc3ccccc3F)c3ccccc32)c1,?
CN(C(=O)CSc1nc(N)c2c3c(sc2n1)CSC(C)(C)C3)c1ccccc1,0%
COCCCn1c(SCC(=O)NCc2ccccc2)nc2c(sc3ccccc32)c1=O,16%
COc1ccc(N=C2NC(=O)C(CC(=O)NCCc3ccc(OC)c(OC)c3)S2)cc1 (stereo not drawn),26%
O=C(Cn1c(=S)nc2ccccn21)N1CCc2ccccc2C1,-13%
CN(CC(=O)Nc1ccc(Cl)cc1)C(=O)c1cc(-c2cccs2)nn1-c1ccccc1,-4%
Cc1cc(C)n(CCCN2CCC(C(=O)Nc3cccc(-c4cccc(F)c4)c3)CC2)n1,1%
CCOC(=O)Cc1nc2nc(C)cc(C)n2n1,-4%
COc1ccc(NC(=O)N2CC3(CCN(C(=O)c4csnn4)CC3)C2)cc1,-1%
COc1cccc2cc(C(=O)NCCc3ccccc3)oc12,?
C/C(=N\Nc1ccc([N+](=O)[O-])cc1[N+](=O)[O-])c1cccnc1,-13%
CC(C)c1cc(C(=O)N/N=C/c2ccoc2)c(O)c(C(C)C)c1,-24%
CC1CCCCN1C(=O)c1cc2nc(-c3ccccc3)cc(-c3ccccc3)n2n1 (stereo not drawn),?
COC(=O)c1ccccc1NC(=O)NC1CC1,-2%

The list continues:
compound,VDR inh
COc1cc(-c2cc(C(=O)Nc3ccccc3N3CCOCC3)c3ccccc3n2)cc(OC)c1OC,-10%
CN(C)C=NC(=O)c1cccn1-c1ncc(C(F)(F)F)cc1Cl,-1%
CC(C)C[C@H](NC(=O)OC(C)(C)C)C(=O)N1CCC(C(=O)O)CC1,-2%
Cc1nc(N2CCC(C)CC2)c2c(C)c(C(=O)O)sc2n1,7%
CCOC(=O)c1c(NC(=O)C2C3C=CC(C3)C2C(=O)O)sc2c1CCCC2 (stereo not drawn),-9%
Cc1cccc(Nc2ncnc3onc(-c4ccc(F)cc4)c23)c1C,-12%
CCOC(=O)Cc1csc(NC(=O)C(C)(C)C)n1,-5%
Cc1ccc(/C=C2\SC(=S)N(CCCC(=O)Nc3ccccn3)C2=O)cc1,-3%
FC(F)(F)c1nc(-c2ccccc2)ncc1-c1nnnn1-c1ccccc1,2%
O=c1[nH]c(CSc2ccccn2)nc2ccccc12,0%
O=C1CC(C(=O)Nc2ccc(Cl)cc2[N+](=O)[O-])C2(CCCCC2)O1 (stereo not drawn),-2%
CCn1c(=O)cc(OCC(=O)N2CCCCCC2)c2ccccc21,11%
COCC(=O)N(C)C[C@H]1N[C@@](Cc2ccccc2)(C(=O)OC)[C@H]2C(=O)N(C)C(=O)[C@@H]12,5%
Cc1ccc(NC(=S)N2CCC(c3ccc(C)cc3)C2)cc1 (stereo not drawn),?
COC(=O)[C@@H]1CCCN1Cc1c(C(=O)N2CCOCC2)nc2c(C)cccn12,15%
CCOc1cccc(C2/C(=C(/O)c3ccc4c(c3)CC(C)O4)C(=O)C(=O)N2CCN2CCOCC2)c1 (stereo not drawn),10%
O=C(Nc1cccc(C(=O)N2CCCCC2)c1)C1CCC1,2%
NC(=O)c1ccc(-n2nnnc2SCc2ccc(F)cc2)cc1,-6%
COC(=O)c1ccc(-n2c(C)cc(/C=N/Nc3nc(C)cc(=O)[nH]3)c2C)cc1,-10%
CC(C)(C)C(=O)C(Cc1ccccc1Cl)n1cncn1 (stereo not drawn),-11%

Four entries from above in a different format:
> CCOc1cccc(C2/C(=C(/O)c3ccc4c(c3)CC(C)O4)C(=O)C(=O)N2CCN2CCOCC2)c1 (stereo not drawn)
- VDR inh = 10%
> O=C(Nc1cccc(C(=O)N2CCCCC2)c1)C1CCC1
- VDR inh = 2%
> NC(=O)c1ccc(-n2nnnc2SCc2ccc(F)cc2)cc1
- VDR inh = -6%
> COC(=O)c1ccc(-n2c(C)cc(/C=N/Nc3nc(C)cc(=O)[nH]3)c2C)cc1
- VDR inh = -10%

Next section:
compound,VDR inh
COc1cc2c(cc1NC(=O)Nc1cccc(C)c1)oc1ccccc12,6%
COc1ccc(/C=C\C(=O)NCc2ccc3c(c2)cc(C)n3C)cc1OC,2%
O=C(Oc1ccc(-c2nnco2)cc1)C1CCN(C(=O)c2ccc(F)cc2)CC1,-1%
CCn1c(-c2ccc(C(C)(C)C)cc2)n[nH]c1=S,10%
COC(=O)c1ccc(C)c(NC(=O)c2ccc(Cn3cc([N+](=O)[O-])cn3)o2)c1,-7%
COC(=O)c1ccc(Nc2ncnc3c2nc2n3CCCC2)cc1,0%
C/C(=N\NC(=O)c1ccc(C(=O)N/N=C(\C)c2ccco2)o1)c1ccco1,-6%
CCC1CCCCN1S(=O)(=O)c1ccc(C(=O)Nc2sc3c(c2C(=O)NC)CCC3)cc1 (stereo not drawn),-8%
Cn1c(-c2cccc(Br)c2)cnc1NCc1cccc(F)c1,3%
Cc1cc(=O)[nH]c(N/N=C2/CCCC/C2=C\c2ccccc2)n1,-26%
Cc1ccc(CSC2=Nc3ccccc3C3=NC(CCC(=O)NC4CCCCC4)C(=O)N23)cc1 (stereo not drawn),3%
CC[C@H](C)Cc1cn([C@@H](CCCCNC(=O)OC(C)(C)C)C(=O)NCCCCCCCCCCC(=O)N2CCN(C(=O)OC(C)(C)C)CC2)nn1,-3%
O=c1cc(CN2CCN(Cc3ccc(F)cc3)C(CCO)C2)[nH]c2ccccc12 (stereo not drawn),-7%
Cn1cccc1C1CCCN1CC(=O)Nc1ccc(C(N)=O)cc1 (stereo not drawn),1%
CCOC(=O)c1cc(-c2ccccc2)n(CCCC(=O)Nc2cc(C)ccc2OC)c1C,7%
NC(=O)c1ccccc1NC(=O)COc1ccc(Cl)cc1,4%
Cc1ccc(N2C(=O)N(CC(=O)Nc3ccc(C)cc3[N+](=O)[O-])C(=O)C2C)cc1 (stereo not drawn),0%
CCOc1ccccc1N1CN(C2CCCCC2)CNC1=S,0%
CN1CCN(C(=O)c2cc3ccccc3[nH]2)CC1,0%
COc1ccccc1NC(=O)Cn1c(=O)n(Cc2ccccc2)c(=O)c2c1c1cc(C)ccc1n2C,5%

(listing goes on)
compound,VDR inh
COCCNC(=O)CSc1nc(N)c(NC(=O)c2ccccc2F)c(=O)[nH]1,5%
Cc1cccc(Cn2c(=O)n(CCC(=O)NCc3ccc4c(c3)OCO4)c(=O)c3sccc32)c1,-4%
CC(C)(C)C1CCC(OCC(O)CN2CCN(c3ccccc3)CC2)CC1 (stereo not drawn),6%
CCOC(=O)N1CCc2c(sc3c2c(=O)n(-c2ccc(Cl)cc2)c(=O)n3CC(=O)c2ccc(F)cc2)C1,-11%
O=C(COC(=O)/C=C/C(=O)OCC(=O)NC12CC3CC(CC(C3)C1)C2)NC12CC3CC(CC(C3)C1)C2,?
CCOc1ccccc1NC(=O)CN1C(=O)COc2ccc(S(=O)(=O)NC3CCCC3)cc21,2%
CCC(C)N(CCNC(=O)c1ccc(NC2=NC3CS(=O)(=O)CC3S2)cc1)Cc1ccco1 (stereo not drawn),?
CC(NC(=O)COC(=O)CCNC(=O)c1ccco1)C12CC3CC(CC(C3)C1)C2 (stereo not drawn),-7%
COc1ccccc1CNC(=O)Cc1csc(NC(=O)Nc2ccccc2OC)n1,13%
CNc1ccc(/C=C2\COc3ccccc3C2=O)cc1[N+](=O)[O-],-9%
O=C(NCc1ccco1)/C(=C/c1ccccc1)NC(=O)c1ccco1,5%
CCOC(=O)c1cccc(NC(=O)c2cc3ccccn3n2)c1,16%
CCOc1ccc(NC(=O)C2CCCN(c3nn4c(=O)cc(C)nc4s3)C2)cc1 (stereo not drawn),-15%
CCOc1cccc(C(=O)NC(=S)Nc2ccc(N3CCCC3)cc2)c1,7%
CCCCCC(=O)Nc1ccc(-c2csc(N)n2)cc1,?
CC1=NN(CCC#N)C(=O)/C1=C/c1ccc(N(C)C)cc1,-4%
COC(=O)COc1ccc(/C=N/NS(=O)(=O)c2ccccc2)cc1,-11%
Cc1c(-n2c(SCC(N)=O)nc3ccccc3c2=O)c(=O)n(-c2ccccc2)n1C,14%
Nc1nnc(SCC(=O)NC2CCCCCC2)s1,-3%
Cc1ccc(NC(=O)CCSc2nc(C)cc(C)n2)cc1,7%

Next compounds follow:
compound,VDR inh
CCCCOc1ccc(C(=O)N(Cc2ccc(N(C)C)cc2)Cc2ccco2)cc1,4%
O=C(CCn1c(=O)oc2ccccc21)Nc1ccc(N2CCOCC2)cc1,10%
CC(=O)N1[C@H](C)C=C[C@]1(Cc1ccccc1)C(=O)NCCc1c[nH]c2ccccc12,-4%
O=C(Nc1cccc(Cl)c1)N1CCN2C(=O)c3ccccc3C12c1ccccc1 (stereo not drawn),-14%
O=C1c2ccc([N+](=O)[O-])cc2NC(c2ccco2)N1/N=C/c1ccco1 (stereo not drawn),-17%
O=C(COc1ccccc1)NC1CCCCCCC1,-5%
CC1CCC(C(C)C)C(OC(=O)C[n+]2cccc(C(N)=O)c2)C1 (stereo not drawn),?
O=C(OCc1ccc([N+](=O)[O-])cc1)c1cc([N+](=O)[O-])ccc1N1CCOCC1,-12%
COc1ccccc1CC(=O)N1CCN(S(=O)(=O)c2ccccc2F)CC1,5%
COc1ccc(/C=C(/C#N)C(=O)Nc2cccc([N+](=O)[O-])c2)cc1C(=O)O,17%
COc1ccc(-c2c3c(=O)n(C)c(=O)n(C)c3cn2-c2ccccc2O)cc1,0%
CCOc1ccc(CN2CCC(C(=O)N3CCN(c4ccccc4F)CC3)CC2)cc1OC,-5%
CC(=O)Oc1ccccc1C1=NN(C(=O)/C=C/c2ccccc2)C(c2ccccc2)C1 (stereo not drawn),-17%
COc1ccc(Cl)cc1C(=O)Nn1c(-c2cccs2)nc2ccccc2c1=O,-1%
CC(C)COC(=O)/C(C#N)=C\c1ccc(-c2ccccc2Cl)o1,-3%
COC(=O)C(Cc1c[nH]c2ccccc12)NC(=O)C(C)C (stereo not drawn),6%
COc1ccc(CCNC(=O)CCn2c(=O)[nH]c3cc(OC)c(OC)cc3c2=O)cc1OC,-22%
COc1cc([C@H]2c3cc4c(cc3[C@@H](O)[C@@H]3COC(=O)[C@H]23)OCO4)cc(OC)c1OC,-5%
O=C(O)c1cccnc1Sc1ncnc2sc3c(c12)CCC3,-7%
Cc1cccc(C(=O)Oc2cccc3c(O)cccc23)c1,-7%

A stretch from further up:
compound,VDR inh
CCCCOc1ccc(C(=O)N(Cc2ccc(N(C)C)cc2)Cc2ccco2)cc1,4%
O=C(CCn1c(=O)oc2ccccc21)Nc1ccc(N2CCOCC2)cc1,10%
CC(=O)N1[C@H](C)C=C[C@]1(Cc1ccccc1)C(=O)NCCc1c[nH]c2ccccc12,-4%

Next section.
compound,VDR inh
COc1ccc(CCNC(=O)C(CCC(N)=O)NS(=O)(=O)c2ccc(Cl)cc2)cc1OC (stereo not drawn),9%
COCc1[nH][nH]c(=O)c1C=Nc1ccc(Oc2ccccc2)cc1,5%
C=CCn1c(SCC(=O)NCCc2ccccc2)nnc1C1CC1,-5%
O=C1CCC(C(=O)OCC(=O)C23CC4CC(CC(C4)C2)C3)N1 (stereo not drawn),-13%
COc1ccc(NC(=O)Cn2c(=O)oc3ccccc32)cc1,-3%&-9%
Cc1nn(-c2ccccc2)c(=O)c2noc(C)c12,-12%
CCOC(=O)[C@@H]1[C@H]2COc3cc(OC)ccc3[C@@H]2N2C(=O)N(c3ccc(C(F)(F)F)cc3)C(=O)[C@]12C,5%
Cc1cccc(OC(C)C(=O)OCC(=O)Nc2sccc2C(N)=O)c1 (stereo not drawn),-11%
CCOC(=O)c1cccc(NC(=O)CCS(=O)(=O)c2cccs2)c1,6%
CCn1cc(CN2N=C(C)CC2c2ccccc2)c(C)n1 (stereo not drawn),-15%
Cc1cc(NC(=O)CSC2=NS(=O)(=O)c3ccccc3N2)no1,17%
CCOC(=O)c1c(NC(=O)CN2CCOCC2)sc2c1CC(C)(C)OC2,1%
NC(=O)[C@@H]1CCOc2c(F)cc([N+](=O)[O-])cc2C(=O)N[C@@H](CO)C(=O)NCC(=O)N1,13%
CCOC(=O)c1nnn(-c2nonc2N)c1-c1ccc(Br)cc1,-22%
CCCCc1nc2ccccc2n1CC(=O)NN,2%
Cc1ccc(Sc2c(C)nn(C(=O)COc3ccccc3)c2C)cc1,-5%
COc1cccc2cc(-c3nnc(SCC(=O)NCCc4ccccc4)n3C)oc12,-7%
Cn1c(CNC(=O)c2ccccc2F)nnc1SCc1ccc(Cl)cc1,-11%
O=C(NCCOC(=O)c1ccccc1C(=O)OCCNC(=O)c1cccnc1)c1cccnc1,-2%
CC(C)CCOc1cccc(C2c3c(oc4ccccc4c3=O)C(=O)N2CCCN2CCOCC2)c1 (stereo not drawn),-9%
COc1ccccc1Nc1c2c(nc3ccc(NC(=O)c4ccc(N(C)C)cc4)cc13)CCCC2,20%
COc1ccc(-c2cc(-c3ccccc3)nc(Cl)n2)cc1OC,22%
